HNF4A DNA FP – change in binding of human HNF4 alpha to DNA; actives 0.3% (n = 360,000); activity change, % at 10 µM; HNF4a-FITC DNA binding, fluorescence polarization, 1 h; in the data active = activity change above about 30%, passing the limit was not always enough;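 also: controls were the assay level and a saturating level of protein; the project sought stronger binding though the title names inhibitors; some compounds called inactive have numbers as strong as hits; positive values seem to mean higher polarization but the record does not say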
Target sequence (P41235 whole entry, looked up): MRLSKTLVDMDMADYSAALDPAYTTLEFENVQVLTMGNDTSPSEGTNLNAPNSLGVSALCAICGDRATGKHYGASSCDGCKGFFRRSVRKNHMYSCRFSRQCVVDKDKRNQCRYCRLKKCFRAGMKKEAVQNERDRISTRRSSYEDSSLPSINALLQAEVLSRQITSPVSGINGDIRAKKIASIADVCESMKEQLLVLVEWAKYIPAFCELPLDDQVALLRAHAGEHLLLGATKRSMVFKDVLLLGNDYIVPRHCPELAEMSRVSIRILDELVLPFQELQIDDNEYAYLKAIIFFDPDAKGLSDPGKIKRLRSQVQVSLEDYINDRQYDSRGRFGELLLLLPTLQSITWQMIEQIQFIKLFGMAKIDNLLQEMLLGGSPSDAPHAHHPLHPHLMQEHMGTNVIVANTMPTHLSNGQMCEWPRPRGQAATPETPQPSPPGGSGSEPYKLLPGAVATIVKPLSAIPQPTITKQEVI
Beta2AR agonist – agonists of human beta-2 adrenergic receptor inducing internalization; AID 504454; response, % (test concentration not listed); Am2.2-beta2AR cells, FAP receptor internalization, flow cytometry; reference of the scale not given here; actives 0.43% (n = 340,000);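 active = response above a set limit, near 3 SD of response in nonfluorescent compounds, cut at about 42% in these data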;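 also: stock transfer was 100 nL into about 11 µL; a reference agonist was the positive control; negative values mostly stem from fluorescent compounds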
Target sequence (P07550 whole entry, looked up): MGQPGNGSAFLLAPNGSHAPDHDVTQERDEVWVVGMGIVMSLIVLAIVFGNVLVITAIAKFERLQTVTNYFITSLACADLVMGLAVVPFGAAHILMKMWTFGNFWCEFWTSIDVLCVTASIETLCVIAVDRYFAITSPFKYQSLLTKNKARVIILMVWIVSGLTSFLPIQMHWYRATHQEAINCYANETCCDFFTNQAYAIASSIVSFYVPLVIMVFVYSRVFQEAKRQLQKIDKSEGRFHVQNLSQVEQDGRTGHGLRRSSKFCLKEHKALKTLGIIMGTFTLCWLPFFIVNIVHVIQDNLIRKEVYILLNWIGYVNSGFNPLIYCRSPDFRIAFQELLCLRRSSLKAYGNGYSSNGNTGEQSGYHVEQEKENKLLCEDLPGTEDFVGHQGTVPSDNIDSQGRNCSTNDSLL
Vif A3G – inhibitors of Vif binding to APOBEC3G peptide, primary screen, biochemical, TR-FRET, GST-Vif 1-94, biotin-A3G peptide, dose response retest (AID 1117319) | TR-FRET GST-Vif / biotin-A3G peptide binding; higher % means a stronger effect; test concentration not given here; strong numbers were not always called active | inhibition, %, or IC50 in µM where a hit was titrated | actives 0.57% (n = 260,000);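 active = above the screen mean plus three standard deviations and confirmed in dose response; inconclusive = results disagree or hit not tested in dose response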;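 also: Vif residues 1-94 fused to GST binding biotinylated APOBEC3G peptide 110-148; 0% = full assay without inhibitor and 100% = GST in place of GST-Vif; retest series ran down from 100 µM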
A1 inh – inhibitors of the anti-apoptotic protein A1, read as caspase activation; MEF A1-2A-BIM cells, Caspase-Glo 3/7 luminescence, 3 h; percent of clofoctol response, vehicle zero; caspase activation, % (test concentration not listed); actives 0.066% (n = 330,000);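 active = over half of replicate activation scores above 10%, or exactly half above 10 with the replicate mean above 10; inconclusive = replicate mean below 10 yet half the replicates above 10; inactive = over half of replicates below 10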;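 also: wells of about 30 µL received 50 nL stock; many hits fall short of the cut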
Ecoli growth – E. coli growth inhibition | AID 1053175 | actives 0.21% (n = 330,000) | OD600 absorbance (no concentration beside the values) | Escherichia coli growth, OD600, 23 h; active compounds read low;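 active = OD600 absorbance below the run mean of sample wells minus 3.6 SD, in any replicate, cut at about 0.56 in these data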;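 also: stock transfer was 300 nL into about 60 µL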
UCH37 DUB inh – inhibitors of human deubiquitinating enzyme UCH37; purified proteasome/UCH37, Ub-AMC cleavage fluorescence; AID 588478; inhibition, % (no concentration beside the values); actives 0.33% (n = 330,000);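 active = mean of two replicates above 20%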;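 also: 0% = compound-free wells with enzyme and 100% = wells lacking proteasome; stock transfer was 100 nL into about 20 µL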
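Material: human UCH37 enzyme supplied as purified proteasome complex. Measure: % inhibition of Ub-AMC cleavage fluorescence. Medium: pH 7.4 Tris-HCl (50 mM) with ovalbumin, ATP-MgCl2, DTT. Times: 30 min preincubation with enzyme, 25 min cleavage at room temperature. Detection: AMC fluorescence intensity at 355/460 nm.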
LANA-H2A inh – blocks KSHV LANA binding to histone H2A/H2B | actives 0.6% (n = 320,000) | AID 2629 | cell-free LANA-H2A/H2B peptide, fluorescence polarization | Q9QR71 | inhibition, % (concentration not given with the values); in the data active = inhibition mostly above about 10%, no sharp cut-off; inactive = mostly below about 6.7%;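 also: stock transfer was 7.5 nL into about 10 µL; 0% = median of vehicle wells and 100% = median of positive control wells; one replicate is shown; the record names a cut of 25% in any replicate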
Numbers without * were called inactive; ? = inconclusive; / = no result given.

SMILES	HNF4A DNA FP	Beta2AR agonist	Vif A3G	A1 inh	Ecoli growth	UCH37 DUB inh	LANA-H2A inh
Cc1ccc(CNC(=O)CN2C(=O)C3(OCCCO3)c3ccccc32)cc1	-0.4	-3	-2%	0.4	0.62	0.6	2.0
COc1ccc(/C=C/C(=O)c2ccc(NC3=NCCCS3)cc2)cc1OC	0.4	9	7%	0.2	0.68	4.6	-4.4
CCOC(=O)C1C(c2cccs2)NC(=O)NC1(O)C(F)(F)F (stereo not drawn)	1.3	-2	-3%	-0.3	0.64	0.3	0.6
O=C(CSc1nnc(CNc2ccccc2)o1)N1CCN(C(=O)c2ccco2)CC1	3.6	-8	23%	0.4	0.69	1.9	6.4
COc1ccc(NC(=O)c2ccccc2N2C(=O)C3C4C=CC(C5CC45)C3C2=O)c(OC)c1 (stereo not drawn)	-0.4	-14	11%	0.3	0.62	2.2	1.1
COc1cccc(CC(=O)NCCCSc2ccccc2)c1	4.4	10	/	-0.2	0.7	1.0	-0.1
COc1cc2oc3ccccc3c2cc1N(CC(=O)N(C)C)S(=O)(=O)c1ccccc1	-3.0	14	64%	0.1	0.82	3.9	-7.4
O=C(NNC(=S)NCc1ccc(Cl)cc1)c1ccc2c(c1)OCO2	-2.2	-2	16%	-1.1	0.65	-1.5	2.6
COCCCn1c(SCC(=O)N2CCOCC2)nnc1-c1ccco1	4.2	4	/	-1.1	0.67	0.5	-7.9
COc1ccc(/C=C(/NC(=O)c2ccco2)C(=O)N2CCCCC2)cc1	0.3	-6	/	0.6	0.68	8.8	4.6
COc1ccc(Oc2nc(C)cc(C)c2S(C)(=O)=O)cc1	-0.7	-8	24%	1.2	0.73	2.8	0.9
NC(=NC1CCCCC1)c1ccc([N+](=O)[O-])cc1	1.7	1	3%	1.3	0.73	2.8	4.0
COc1ccc(NS(=O)(=O)c2cccc(C(=O)NNC(=O)c3cc(S(N)(=O)=O)ccc3OC)c2)cc1	0.7	3	-1%	1.0	0.62	3.5	/
Cc1ccc(S(=O)(=O)NC(Cc2ccccc2)C(=O)NN)cc1 (stereo not drawn)	-1.1	1	/	0.1	0.63	1.8	3.0
CSc1ncc(C(=O)Nc2ccc(C(C)=O)cc2)c(-c2ccccc2)n1	0.6	8	-4%	-0.4	0.62	-2.1	2.1
CC(C)P(=O)(c1cccc(C(=O)O)c1)C(C)C	-0.3	-4	/	0.0	0.64	2.5	2.0
Cc1ccccc1NC(=O)N1CCCC1C(=O)NCc1cccs1 (stereo not drawn)	-3.4	9	14%	1.1	0.74	4.5	-2.0
CC(CCN1CCC(CN2C(=S)NCC2Cc2ccccc2)CC1)c1ccccc1 (stereo not drawn)	-2.3	-7	7%	/	/	/	/
O=C(Nc1ccc(Cl)c(S(=O)(=O)N2CCCCC2)c1)c1cccnc1	0.6	0	-3%	-1.1	0.59	1.8	-4.8
COC(=O)C(C)NC(=O)C(C)NC(=O)OCc1ccccc1 (stereo not drawn)	2.3	5	-3%	0.2	0.75	-0.6	-3.5
O=C(NCC1CCCO1)c1ccc(Oc2ccc([N+](=O)[O-])cc2Cl)cc1 (stereo not drawn)	-1.1	-3	10%	-0.2	0.67	2.8	-3.2
CS(=O)(=O)N1CCN(c2nc(-c3ccccc3)cs2)CC1	-0.2	-7	6%	0.3	0.69	1.4	4.0
C=CCN1c2ccccc2[C@]23C[C@@H](C(=O)OC)N(C(=O)c4ccco4)C2=NC(C(=O)OC)=C(C(=O)OC)[C@H]13	-1.4	-2	/	0.3	/	-0.2	7.4
CCc1ccc2oc(C(=O)N3CCN(C)CC3)cc(=O)c2c1	-0.6	-4	-3%	1.4	0.65	-1.6	-0.8
Cc1cccn2c(=O)c3cc(C#N)c(=N)n(Cc4ccncc4)c3nc12	/	/	14%	0.2	0.66	-39	-2.6
CCc1noc(C)c1C(=O)NCCc1ccc(S(N)(=O)=O)cc1	-4.7	-3	-3%	-0.1	0.68	5.1	-2.6
CC(=O)Nc1ccc(C(=O)N/C(=C/c2ccccc2)C(=O)NCc2ccco2)cc1	6.0	5	-8%	0.0	0.64	-0.2	-2.4
CC(=O)c1ccc[n+](CC(=O)NC(C)c2ccccc2)c1 (stereo not drawn)	2.4	-11	-3%	-1.0	0.66	0.6	8.5
O=C1c2ccccc2C(=O)N1Cc1cc(-c2ccccc2)no1	9.1	-2	-7%	-0.7	0.72	1.2	-0.5
CC1CN(C(=O)COC(=O)c2cc(S(N)(=O)=O)c(Cl)cc2Cl)CC(C)O1 (stereo not drawn)	-0.4	-1	/	0.5	/	/	-1.8
CCCCOCCCNC(=O)Cc1ccccc1OC	-1.3	-2	3%	0.2	0.7	3.4	2.0
Nc1nc(N)c2c(ccc3nccc32)[nH]1	0.1	-7	-2%	0.8	/	/	-0.8
COc1cccc(C(=O)CC(=O)C(=O)Nc2ccc(C)cc2Cl)c1	5.1	2	/	-0.4	0.64	2.1	1.6
Cc1ccc(C(=O)CN(CCC(=O)O)C(=O)c2ccncc2)cc1	-0.9	-1	/	0.6	0.68	2.4	-0.3
COc1cc(/C=N/NC(=O)c2cccc(C(=O)N/N=C/c3ccc(O)c(OC)c3)n2)ccc1O	-0.2	2	-10%	0.0	/	/	-6.5
O=C(O)COc1ccc(C(=O)c2ccccc2)cc1	1.6	-3	16%	-1.0	0.67	2.3	1.4
OC(C1=CC(=Cc2ccncc2)c2ccccc21)c1ccncc1 (stereo not drawn)	-2.0	-1	-4%	/	0.68	9.0	/
Cc1cccc(C)c1NC(=O)COC(=O)C1C2CC3OC(=O)C1C3C2 (stereo not drawn)	0.7	-1	/	-0.2	0.69	2.1	-3.5
CC(=O)c1ccc(NC(=O)C[n+]2ccccc2)cc1	1.2	-1	-2%	-0.5	0.66	0.5	-1.9
COc1ccc(C2CC(=O)c3sc(N)nc3C2)cc1 (stereo not drawn)	2.8	5	24%	0.2	0.74	4.2	0.8
Cc1cc(C)n(CCC(=O)Nc2ccc3c(c2)OCCO3)n1	0.7	4	/	-0.4	0.7	-0.3	0.9
CCOC(=O)C1=NN(C(=O)COc2ccccc2)C(O)(c2ccc(Br)cc2)C1 (stereo not drawn)	-0.7	-1	8%	-1.2	0.64	-0.5	7.7
COCCCNc1nnc(Cc2ccccc2)c2ccccc12	-2.5	-5	/	-0.6	0.61	2.8	-3.1
COc1ccccc1NC(=O)c1ccc(Cl)c(S(=O)(=O)NCc2ccco2)c1	0.0	-1	-12%	0.9	0.65	-0.2	-2.9
CSCC[C@H](NC(=O)CCNC(C)=O)c1nc2ccccc2[nH]1	-3.1	2	?	0.2	0.68	2.6	0.8
CCCC(=O)N1CCN(c2ccc(NC(=O)c3ccco3)cc2)CC1	1.2	-2	9%	0.7	0.66	2.2	-0.4
CCCN1C(=O)c2ccccc2NC1c1ccc(OC)cc1OC (stereo not drawn)	4.2	-1	1%	-0.3	0.68	-415	7.3
CCOC(=O)C1CCCN1C(=O)C1(NC(C)=O)CCCC1 (stereo not drawn)	1.3	-11	-7%	/	0.71	0.2	/
Cc1ccccc1CN1C[C@@H]2C[C@@H](c3cn[nH]c3-c3ccccc3)N3CCC[C@@]23C1=O	6.0	4	/	2.0	0.7	2.6	-1.2
CC(C)NC(=O)c1cc2c(=O)n3ccccc3nc2s1	3.6	2	-4%	0.2	0.69	-1.7	4.1
NC(=O)CC(NC(=O)Cc1ccc(Br)cc1)c1ccc(NCCOc2ccccc2)c([N+](=O)[O-])c1 (stereo not drawn)	9.6	-6	/	0.4	0.68	36*	2.4
CCc1ccc(S(=O)(=O)NCc2cn3c(C)csc3n2)s1	0.8	0	8%	0.0	0.73	0.9	-3.0
CC(NC(=O)Nc1cccc(F)c1)c1ccc2c(c1)OCO2 (stereo not drawn)	3.5	-7	4%	-0.2	0.69	2.2	-0.8
CC(C)CCNC(=O)COC(=O)c1ccc(Br)o1	-0.3	1	-2%	0.3	0.72	3.9	-5.1
Cc1c(C(=O)C(=O)NCCCn2ccnc2)c2ccccc2n1C	-3.5	-8	-1%	-1.2	0.73	2.5	-0.5
COc1ccc(OCCNC(=O)c2ccccc2OCC(=O)Nc2ccc(NC(C)=O)cc2)cc1	-0.5	-4	16%	-0.3	0.62	2.3	1.3
Cc1cccc(NC(=O)NCC2CC2)c1	1.8	-2	3%	-3.4	0.68	0.6	1.0
COc1cc(C)c(Cl)cc1S(=O)(=O)n1cnc2ccccc21	2.0	1	2%	-0.2	0.63	2.1	-1.9
O=C(CSc1nnc(NC(=O)c2ccco2)s1)Nc1ccc2c(c1)OCCO2	0.8	-8	-3%	-1.5	/	/	-1.1
Cc1ccc(C)c(S(=O)(=O)N2CCCC2CNC(=O)C(=O)NCc2ccccn2)c1 (stereo not drawn)	1.7	-1	4%	0.8	0.59	0.2	-1.4
Remaining list, next part:
SMILES	HNF4A DNA FP	Beta2AR agonist	Vif A3G	A1 inh	Ecoli growth	UCH37 DUB inh	LANA-H2A inh
Cc1cc(N)n(-c2ccc(Cl)cc2)n1	1.0	9	-2%	0.2	0.67	-0.3	7.9
Cc1ccccc1N(C(=O)CNC(=O)c1cccs1)C(C(=O)NC1CCCC1)c1ccncc1 (stereo not drawn)	-2.5	9	-11%	0.4	0.73	2.2	1.5
CC(=C/C(=O)O)/C=C/c1cccs1	-1.8	-13	18%	-0.1	/	6.7	-1.0
CCOC(=O)c1cnc(SCC(=O)N2CCC(C(N)=O)CC2)nc1N	6.6	1	/	-0.1	0.68	-1.9	-8.0
Cc1cccc(OCC(=O)NCC(C)(C)N2CCOCC2)c1	-4.4	-7	-8%	1.1	0.66	1.9	5.7
CC(=O)OCc1c(C(F)(F)F)nn(C)c1Sc1ccccc1	-0.2	1	4%	-0.8	0.68	5.4	2.2
CN(CC(=O)OCC(=O)Nc1ccccc1)S(=O)(=O)c1ccc(Cl)cc1	3.3	-6	4%	-1.6	0.76	-1.7	-2.2
O=C(CSc1nnc(CNC(=O)c2cccc(C(F)(F)F)c2)o1)NC1CCCCC1	3.9	1	29%	-1.0	0.66	2.4	4.2
Cc1occc1C(=O)Nc1sccc1C(N)=O	-1.2	-1	/	-0.3	0.63	0.2	-0.1
Cc1c(C)c(C)c(S(=O)(=O)N2CCC3(CC2)OCCO3)c(C)c1C	-0.5	-4	/	-0.5	0.7	2.5	2.0
Cc1nn(Cc2ccccc2)c(C)c1C(=O)NCC(c1cccs1)N1CCOCC1 (stereo not drawn)	-1.0	63*	-4%	0.5	0.66	-0.9	4.1

Random excerpt: 6 entries already listed
SMILES	HNF4A DNA FP	Beta2AR agonist	Vif A3G	A1 inh	Ecoli growth	UCH37 DUB inh	LANA-H2A inh
CC(=O)OCc1c(C(F)(F)F)nn(C)c1Sc1ccccc1	-0.2	1	4%	-0.8	0.68	5.4	2.2
Cc1ccccc1N(C(=O)CNC(=O)c1cccs1)C(C(=O)NC1CCCC1)c1ccncc1 (stereo not drawn)	-2.5	9	-11%	0.4	0.73	2.2	1.5
Cc1cc(N)n(-c2ccc(Cl)cc2)n1	1.0	9	-2%	0.2	0.67	-0.3	7.9
Cc1occc1C(=O)Nc1sccc1C(N)=O	-1.2	-1	/	-0.3	0.63	0.2	-0.1
Cc1cccc(OCC(=O)NCC(C)(C)N2CCOCC2)c1	-4.4	-7	-8%	1.1	0.66	1.9	5.7
Cc1nn(Cc2ccccc2)c(C)c1C(=O)NCC(c1cccs1)N1CCOCC1 (stereo not drawn)	-1.0	63*	-4%	0.5	0.66	-0.9	4.1
